Screening data as filed in PubChem.
Arbovirus anti – blocks arbovirus infection; arbovirus infection cell-based antiviral screen; inhibition, % at 10 µM; 200,000 tested, 0.37% active;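 active = inhibition from about 30%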;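 note: bluetongue infection of BSR cells; cell survival read as ATP light after 72 h; 0% = infected wells without compound and 100% = uninfected wells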
RecA splice inh – inhibitors of M. tuberculosis RecA intein splicing; P9WHJ3; cell-free RecA intein splicing, fluorescence; inhibition, %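 (about 9 µM by stock and volumes)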; 290,000 tested, 0.75% active; AID 2221; in the data active = inhibition above about 30%; inconclusive = no clear call, values can overlap the other calls;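 note: 0% = vehicle wells and 100% = reference inhibitor control wells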
Target sequence (P9WHJ3 whole entry, looked up, canonical isoform): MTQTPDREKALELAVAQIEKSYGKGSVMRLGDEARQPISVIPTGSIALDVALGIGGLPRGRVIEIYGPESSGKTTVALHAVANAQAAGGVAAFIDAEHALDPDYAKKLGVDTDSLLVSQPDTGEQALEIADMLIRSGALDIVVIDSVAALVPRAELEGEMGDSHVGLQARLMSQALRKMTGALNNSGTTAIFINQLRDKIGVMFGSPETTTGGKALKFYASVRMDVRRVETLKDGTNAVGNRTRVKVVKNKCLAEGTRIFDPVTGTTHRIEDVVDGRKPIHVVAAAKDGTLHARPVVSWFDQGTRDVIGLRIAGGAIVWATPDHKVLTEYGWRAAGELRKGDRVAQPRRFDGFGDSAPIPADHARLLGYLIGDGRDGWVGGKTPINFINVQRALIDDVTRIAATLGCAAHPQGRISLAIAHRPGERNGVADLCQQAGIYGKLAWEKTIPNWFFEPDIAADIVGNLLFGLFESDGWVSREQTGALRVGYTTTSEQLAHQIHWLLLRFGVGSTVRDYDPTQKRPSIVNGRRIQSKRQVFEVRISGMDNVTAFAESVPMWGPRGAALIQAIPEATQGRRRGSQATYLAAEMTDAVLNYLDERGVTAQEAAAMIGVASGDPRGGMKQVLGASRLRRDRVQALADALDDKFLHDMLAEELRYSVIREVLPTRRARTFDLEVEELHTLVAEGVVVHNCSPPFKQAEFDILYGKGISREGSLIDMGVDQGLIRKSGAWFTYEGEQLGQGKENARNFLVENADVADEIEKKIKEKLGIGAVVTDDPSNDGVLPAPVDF
Mtb growth – M. tuberculosis H37Rv growth inhibitors, H37Rv strain (AID 1626); M. tuberculosis H37Rv growth inhibition; higher % means a stronger effect; inhibition, % at 10 µM; hits with a dose series show IC50 in µM; 220,000 tested, 0.95% active;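 active = confirmed in a dose series; inconclusive = inhibition above 80% but not taken into the dose series; inactive = below 80% or under 30% at every dose of the series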;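 note: bacteria incubated seven days before Alamar blue readout; 0% = bacteria only wells and 100% = bacteria with antibiotic wells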
Mtb betalactam – beta-lactam sensitization of Mtb H37Rv; M. tuberculosis H37Rv growth with meropenem, percent inhibition; hits of this screen are not shown here; inhibition, % at 25 µM; 330,000 tested, 0.27% active;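 active = about 74% or more and at least 40 points above the plate without the antibiotic, then above 30% in a dose series; inconclusive = first-round hits that could not be retested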;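 note: growth measured after seven days incubation then overnight dye step; 0% = bacteria only wells and 100% = bacteria with antibiotic; twin plates without the antibiotic show which effects depend on it; some results filed as inactive read as strong as hits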
YopH inh – inhibitors of Yersinia enterocolitica YopH tyrosine phosphatase | fluorescence Ex485/Em525 | inhibition, %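 (about 10 µM by stock and volumes)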 | 140,000 tested, 0.16% active;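 active = inhibition of 50% or more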;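 note: controls were vehicle for no effect and minimum signal wells for full effect; inactives centre near -20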
Arbovirus anti repeat – further read-out of Arbovirus anti, marked with its call; inhibition, %; measured here: 10K subset replicate screen; many hits read low in the repeat;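 first of two repeat runs on a subset; 0% = infected and 100% = uninfected wells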
Numbers without * were called inactive; ? = inconclusive; · = not tested or not shown; & = joins results of further samples. These rows are one share of the data. The share of hits here may be higher or lower than overall.

SMILES	Arbovirus anti	RecA splice inh	Mtb growth	Mtb betalactam	YopH inh	others
O=C(O)CC12CC3CC(C1)CC(n1ncc(NCc4ccc5c(c4)OCO5)c(Cl)c1=O)(C3)C2	1.3	-0.9	3.6%	-3.5	·
O=C(Cn1cnc2c(nnn2Cc2ccc(Cl)cc2)c1=O)N1CCN(c2ccccc2)CC1	7.0	·	11.9%	-0.4	·	Arbovirus anti repeat=-16.1
O=C(NCCC1=CCCCC1)C1CCCN(S(=O)(=O)c2cnc[nH]2)C1 (configuration not stated)	0.1	·	-16.7%	-0.9	-44.9
CCC(C)Oc1ccccc1C1CC(=O)NC2=C1C(=O)CCC2 (configuration not stated)	-9.1	-0.5	0.8%	-0.9	-37.9
CCOC(=O)C1CCCN(CC(=O)Nc2c(C(=O)OC)[nH]c3ccc(C)cc23)C1 (configuration not stated)	6.2	0.8	-4.3%	-6.8	-31.6
COc1ccc(CNc2ccc(C)cc2)cc1Br	-2.7	5.0	0.4%	-3.5	-29.4
O=C(CCN1CCCC1)c1cccs1	·	0.0	-2.6%	92.6	·
COC(=O)C(Cc1ccc(OC(=O)c2ccc(C(F)(F)F)cc2)cc1)N1Cc2ccccc2C1=O (configuration not stated)	-1.3	3.9	20.6%	97.0	8.3
Cc1c(NS(=O)(=O)c2cccc([N+](=O)[O-])c2)c(=O)n(-c2ccccc2)n1C	·	2.1	·	2.8	·
N=c1c2c(ncn1CCCO)Oc1cc(O)ccc1C2c1ccccc1 (configuration not stated)	·	-2.9	-1.2%	-3.0	·
COc1ccc(C(=O)c2c(C(F)(F)F)oc3c2C(=O)c2ccccc2C3=O)cc1	-44.7	86.8*	18.4%	67.5	17.5
COc1cc(/C=C2/C(=O)NN(c3cccc(F)c3)C2=O)ccc1OC(=O)c1ccco1	-29.1	19.8	58.3%	99.9	2.8
COc1ccc(NS(=O)(=O)c2c(C(=O)N3CCCCCC3)c(C)n(C)c2C)cc1OC	·	-2.0	·	-2.2	·
Cc1cc(Cl)cc2c1NC(=O)[C@]21[C@@H]2C(=O)N(Cc3ccccc3)C(=O)[C@@H]2[C@@H]2CCCN21	-12.5	2.1&0.7	-6.4%	11.3	-0.2
O=C(CCCCCN1C(=O)c2ccccc2C1=O)NCc1ccco1	-0.2	-1.7	-7.0%	8.4	9.4
CCCCOc1ccc(N2C(=O)CC(N(CCc3ccccc3)C(=O)/C=C/C(=O)O)C2=O)cc1 (configuration not stated)	-3.6	3.3	-19.4%	-3.9	-26.4
COc1ccc(N(CC(=O)N2CC=C(c3ccccc3)CC2)S(=O)(=O)c2c(C)noc2C)cc1	0.6	·	-1.3%	3.8	-39.0	Arbovirus anti repeat=2.5
CN(Cc1cc(=O)n2ccsc2n1)C1CCCCC1	4.3	-0.1	2.7%	5.8	·
CCOc1ccc(CCNC(=O)/C=C/c2ccco2)cc1OCC	·	0.2	·	0.2	·
CC1=CC(C)C2(CO)COC(c3cccnc3)C1C2C (configuration not stated)	4.4	1.9	5.4%	7.2	-3.8
CCN1CCCC1CNC(=O)Cn1cccc1C(=O)c1ccccc1 (configuration not stated)	11.0	-0.8	-4.8%	-12.3	-4.1
CC(O)c1nc2ccccc2n1CCCCOc1ccccc1 (configuration not stated)	-1.5	0.2	-3.0%	12.9	·
COC(=O)c1ccc(C(=O)N(C)C2CCCN(Cc3ccccc3F)C2)nc1 (configuration not stated)	·	0.6	·	7.1	·
Cc1ccc(-c2nc(CNC(=O)c3cc(C)on3)cs2)cc1	·	2.2	·	0.9	·
NC(=O)c1ccc(CN2CCc3ccccc3C2)cc1	·	2.3	·	-3.1	·

Filtered by structure, the compounds so far containing a furan ring, fused or not.
SMILES	Arbovirus anti	RecA splice inh	Mtb growth	Mtb betalactam	YopH inh	others
COc1ccc(C(=O)c2c(C(F)(F)F)oc3c2C(=O)c2ccccc2C3=O)cc1	-44.7	86.8*	18.4%	67.5	17.5
COc1cc(/C=C2/C(=O)NN(c3cccc(F)c3)C2=O)ccc1OC(=O)c1ccco1	-29.1	19.8	58.3%	99.9	2.8
O=C(CCCCCN1C(=O)c2ccccc2C1=O)NCc1ccco1	-0.2	-1.7	-7.0%	8.4	9.4
CCOc1ccc(CCNC(=O)/C=C/c2ccco2)cc1OCC	·	0.2	·	0.2	·

Back to the main list, starting three compounds before the break.
SMILES	Arbovirus anti	RecA splice inh	Mtb growth	Mtb betalactam	YopH inh	others
COC(=O)c1ccc(C(=O)N(C)C2CCCN(Cc3ccccc3F)C2)nc1 (configuration not stated)	·	0.6	·	7.1	·
Cc1ccc(-c2nc(CNC(=O)c3cc(C)on3)cs2)cc1	·	2.2	·	0.9	·
NC(=O)c1ccc(CN2CCc3ccccc3C2)cc1	·	2.3	·	-3.1	·
CCOC(=O)c1[nH]c2cc(OC)c(OC)cc2c1NC(=O)CN1CCN(c2ccc(OC)cc2)C(C)C1 (configuration not stated)	0.1	-2.1	10.9%	-0.4	6.9
O=[N+]([O-])c1ccc(S(=O)(=O)Nc2ccc(-c3csc(-c4ccccc4)n3)cc2)cc1	-44.2	1.7	-0.6%	-12.2	-29.7
COc1ccccc1-n1ccnc(SCC(=O)NCc2ccccc2)c1=O	·	0.8	·	-3.9	·
CN(C)CCc1cc2c(c3c1ccc1ccccc13)OCO2	·	-0.1	·	77.6	·
CCc1ccccc1NS(=O)(=O)c1ccc2[nH]cc(C(=O)NCC3CCCO3)c(=O)c2c1 (configuration not stated)	-3.4	2.1	·	3.7	-26.6
CCCSc1nnc(CSc2ncccn2)n1C	2.5	2.1	3.4%	3.2	·
COc1ccc(N2CC(C(=O)NCCCN3CCOCC3)CC2=O)cc1 (configuration not stated)	4.6	-1.2	-5.2%	-23.6	-7.5
COc1ccc(Br)cc1CNC(=O)C1CCN(S(=O)(=O)N2CCC(C)CC2)CC1	-6.1	-1.4	-1.2%	5.4	-22.9
Cc1nc(Nc2cccc(O)c2)c2c3c(sc2n1)CCC3	·	0.1	4.5%	-1.7	·
Cc1ccc(NC(=O)/C=N/OCC(=O)NCc2ccccc2Cl)cc1	·	-1.8	-2.1%	-6.5	·
Cn1nc(C(=O)NCCc2ccc(Cl)cc2)c2c1-c1ccccc1S(=O)(=O)C2	·	-0.4	·	2.4	·
CC(C)N1CCN(CC#Cc2ccccc2)CC1CCO (configuration not stated)	4.0	2.3	-0.6%	2.6	·
CN(C)c1nc(=S)nc(NCc2ccccc2)[nH]1	0.8	-0.3	66.0%	?	·
O=S1(=O)CCOC[C@H](Cc2ccccc2)N1Cc1ccccc1	·	1.7	9.4%	-2.7	·
Cc1ccc(NC(=O)c2sccc2C)nc1	·	0.2	·	1.6	·
O=C(Nc1cccc(-c2nnc(-c3ccco3)o2)c1)C(c1ccccc1)c1ccccc1	3.6	5.9	-1.2%	-4.0	-61.9
Cc1cccc(C)c1NC(=S)N(CCN1CCCCCC1)Cc1ccco1	10.0	-5.1	6.2%	-0.9	·
CCN(CC)c1ccc(/C=N/N2CCN(Cc3ccc(C)cc3)CC2)c(O)c1	18.3	-6.2	2.1%	4.8	-7.1
COc1cc(-c2nc(-c3ccccc3)c(-c3cc([N+](=O)[O-])ccc3C)[nH]2)cc(OC)c1OC	-23.9	25.3	3.8%	-3.4	-14.1
CCOC(=O)c1sc2nc(SCC#N)n(CC3CCCO3)c(=O)c2c1C (configuration not stated)	3.0	0.2	2.6%	·	1.4
CC(=O)NCCCOc1ccc([N+](=O)[O-])cc1Cl	·	-2.2	10.8%	-0.7	·
O=C(NCCN1CCOCC1)c1cc(-c2cccs2)on1	-7.2	-3.3	-3.5%	1.9	2.0

A stretch of the results above:
SMILES	Arbovirus anti	RecA splice inh	Mtb growth	Mtb betalactam	YopH inh	others
CC(=O)NCCCOc1ccc([N+](=O)[O-])cc1Cl	·	-2.2	10.8%	-0.7	·
O=C(NCCN1CCOCC1)c1cc(-c2cccs2)on1	-7.2	-3.3	-3.5%	1.9	2.0
